HPGD inh – qHTS Assay for Inhibitors of HPGD (15-Hydroxyprostaglandin Dehydrogenase) | purified HPGD, NADH fluorescence kinetic, PGE2 substrate | Potency, µM, inactives show top-dose activity change, negative = inhibition, hits mostly inhibitors | 150,000 compounds, 4.3% hits | AID 894, 2007; active = well fitted inhibition curve with a large enough effect (not every such curve was filed as active); inconclusive = small, poorly fitted or top-dose-only effect, or another doubt; inactive = no such curve, though single readings can be large or run the other way;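 also: top concentration of the series not given in the record; plate controls included wells without enzyme; inactives centre near -10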
Target sequence (P15428 whole entry, looked up): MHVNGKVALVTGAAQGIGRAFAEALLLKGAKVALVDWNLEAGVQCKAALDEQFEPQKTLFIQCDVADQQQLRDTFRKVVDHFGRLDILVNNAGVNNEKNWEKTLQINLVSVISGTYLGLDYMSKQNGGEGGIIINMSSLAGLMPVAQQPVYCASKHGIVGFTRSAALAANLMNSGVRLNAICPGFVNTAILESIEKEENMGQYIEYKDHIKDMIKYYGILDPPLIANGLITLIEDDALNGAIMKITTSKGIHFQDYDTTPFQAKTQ
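NADH formation kinetics: reaction with 30 uM PGE2 and 1 mM NAD+ (final), 20 nM enzyme, Tris-HCl pH 8 with Tween 20, after 15 min compound preincubation at room temperature. Fluorescence change, last versus first of five reads.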
Numbers without * were called inactive; ? = inconclusive; & = joins results of further samples. % is scaled to controls: 0 for no effect and ±100 for the full control effect; potency is read from the fitted curve at half-maximal effect. The list is partial; rates above refer to the full screens.

molecule | HPGD inh
COc1ccc(NC(=O)C2C3C=CC4(CN(Cc5cccnc5)C(=O)C24)O3)c(OC)c1 (stereo not drawn) | -21%
O=c1c2ccccc2oc2ccccc12 | ?
O=C(CN1C(=O)c2cccc3cccc1c23)NCc1ccccn1 | -19%
COC(=O)N[C@@H](CCc1ccccc1)/C(C(=O)OC)=C(\C)NCc1ccccc1 | -3%
O=C1C(Cl)=C(NCC2CCCO2)C(=O)N1c1cccc(Cl)c1Cl (stereo not drawn) | -25%
CC1(c2ccccc2)CC(c2ccccc2)=Nc2nonc2N1 (stereo not drawn) | -11%
CCOC(=O)Cn1c(=N)n(CCOc2ccc(OC)cc2)c2ccccc21 | -1%
O=C(Nc1ccc(S(=O)(=O)Nc2ncccn2)cc1)c1ccco1 | -14%
Cc1ccc(NC(=S)Nc2ccc(OC(F)F)c(Cl)c2)cc1Cl | -7%
CCn1c(CSc2nc3ccccc3n2C)nc2ccccc21 | -4%
Cc1ccc(S(=O)(=O)Nc2nc3n(n2)C(c2ccc(Cl)cc2)CC(=O)N3)cc1 (stereo not drawn) | -5%
O=C1c2cccc(OCC(=O)N3N=C(c4cccs4)CC3c3ccc(F)cc3)c2CCN1Cc1ccccc1 (stereo not drawn) | ?
Cc1cc(C)nc(-n2nc(C)c3c(=O)[nH]c(C(F)(F)F)nc32)n1 | -10%
COc1ccc(-c2nnn(CC(=O)N(C3CCCCC3)C(C)C(=O)NC3CCCC3)n2)cc1OC (stereo not drawn) | -18%
COc1ccc(NC(=O)c2c(F)cccc2F)cc1S(=O)(=O)Nc1ccc(Br)cc1 | -15%

4 compounds from above, ordered by the number in HPGD inh, highest first.
mol	HPGD inh
CCOC(=O)Cn1c(=N)n(CCOc2ccc(OC)cc2)c2ccccc21	-1%
CCn1c(CSc2nc3ccccc3n2C)nc2ccccc21	-4%
Cc1ccc(S(=O)(=O)Nc2nc3n(n2)C(c2ccc(Cl)cc2)CC(=O)N3)cc1 (stereo not drawn)	-5%
O=C(CN1C(=O)c2cccc3cccc1c23)NCc1ccccn1	-19%

More compounds follow.
molecule | HPGD inh
Clc1ccc(C(c2nnnn2C2CCCC2)N2CCSCC2)cc1 (stereo not drawn) | -3%
CCOC(=O)Cc1csc(NC(=O)Cc2ccc([N+](=O)[O-])cc2)n1 | -12%
c1ccc(OCc2nc3ccccc3[nH]2)cc1 | -20%
CCOC(=O)C1CCCN(C(=O)c2cn(CC)c(=O)c3cc(OC)c(OC)cc23)C1 (stereo not drawn) | -9%
Cc1ccc(-c2nc3ccccc3[nH]2)cc1NC(=S)NC(=O)c1ccccc1Br | -15%
COc1cc(C2C(C(=O)Nc3ccccc3OC)=C(C)Nc3ncnn32)ccc1O (stereo not drawn) | -10%
O=P(O)(CCCCP(=O)(O)CCc1ccccc1)CCc1ccccc1 | -6%
COc1ccc(N(C(=O)CCl)C(C)(C(=O)Nc2c(C)cccc2C)c2ccccn2)cc1 (stereo not drawn) | 1%
Cc1ccsc1C1NC(=O)c2c(sc3c2CCN(C)C3)N1 (stereo not drawn) | ?
COc1ccc(OC)c(NC(=O)c2cnc3n(c2=O)CCS3)c1 | ?
O=S(=O)(Cc1cc(Sc2ccc(Cl)cc2)nc(-c2ccccc2)n1)c1ccccc1 | -20%
Cc1cccc(NC(=O)c2ccc(Cn3cc(C(F)(F)F)ccc3=O)cc2)c1 | -6%
O=C(NC1CCCC1)C(c1ccc(Cl)cc1)N1CCc2ccccc21 (stereo not drawn) | -7%
O=C(CN1C2CCC1CC(NC(=O)C1CC1)C2)NCc1ccccc1 (stereo not drawn) | 1%
CCOc1ccc(-n2c(SCC(=O)Nc3ccc4c(c3)OCO4)nc3c(c2=O)SCC3)cc1 | -7%
COc1ccc(C(=O)N2CCC3(CC2)CCN(c2ccncc2)CC3)cc1 | -4%
COc1ccc(/C=C(\C#N)C(=O)NCCc2ccccc2)cc1OCc1ccccc1 | ?
CCc1ccccc1NC(=O)Cc1ccc(-n2cccc2)cc1 | -18%
CCSc1nc2nn(-c3ccccc3)c(=O)c-2c2n1CCCCC2 | -18%
Cc1cc(C)c(NS(=O)(=O)c2ccc(NC(=O)c3cccs3)cc2)c(C)c1 | -12%
Cc1cc(C)n2cc(CSCC(=O)O)nc2n1 | ?
CC(C)(C)C(=O)[C@@H]1[C@@H]2C(=O)N(C3CCCCC3)C(=O)[C@@H]2[C@H]2c3ccccc3C=CN12 | ?
O=C(CSc1nnc(NC(=O)c2ccco2)s1)NC1CCCCC1 | -9%
CCNS(=O)(=O)c1ccc(CCC(=O)Nc2cc(Cl)ccc2Oc2ccccc2)cc1 | -12%
CCOC(=O)Cn1c(S(=O)(=O)Cc2ccccc2Cl)nc(-c2ccccc2)c1-c1ccccc1 | -13%
COc1ccc(CNC(=O)CN(C(=O)c2cc3sccc3n2C)C2CCCC2)cc1 | -28%
CCOc1ccc(C(=O)NC(=S)Nc2ccccc2N2CCOCC2)cc1Br | -13%
COc1ccc(OC)c(NC(=O)CSc2nnc(CNC(=O)c3ccco3)o2)c1 | -16%
CCCS(=O)(=O)C(=C(Nc1ccccc1)Nc1ccccc1)S(=O)(=O)CCC | -8%
C=CCn1c(SCC(=O)NCc2ccccc2)nnc1-c1cc(Br)ccc1O | -1%
O=C(Nc1ncc(Cc2cccc(Cl)c2)s1)C1=NCCN1 | -5%
Cc1cc(C)c(C)c(S(=O)(=O)N2CCC(C(=O)Nc3ccccc3N3CCOCC3)CC2)c1C | -14%
Cc1cccc(N2CCN(C(=O)Cc3ccc(-n4c(=O)[nH]c5ccsc5c4=O)cc3)CC2C)c1 (stereo not drawn) | -8%
Cc1ccc2nc(NC(=O)c3ccc4c(c3)OCO4)sc2c1 | ?
COc1ccc(F)cc1S(=O)(=O)N1CCC(C(N)=O)CC1 | 5%
COc1ccc(Nc2nc(Nc3ccc(OC)cc3)nc(-n3[nH]c(=O)c(C)c3C)n2)cc1 | -17%
COC(=O)c1ccc(-c2nc3ccccc3o2)cc1 | ?
CCCC1CCC(=NNC(=O)CNc2ccc(OC)cc2)CC1 (stereo not drawn) | -13%
O=C(NC(=S)Nc1cccc(NC(=O)c2ccc(Cl)cc2Cl)c1)c1cccs1 | -4%
O=C(CN1C(=O)c2ccccc2S1(=O)=O)N1CCc2ccccc2C1 | 0%
Cc1cc(C)c(-c2cc(C(F)(F)F)no2)c(=O)[nH]1 | ?
Clc1ncnc2scc(C3COc4ccccc4O3)c12 (stereo not drawn) | 28µM*
CCCc1cc(C(=O)N2CCN(c3ccccc3C)CC2)cs1 | -15%
CCOC(=O)Cc1csc(SCC(=O)c2c(N)n(CC(C)C)c(=O)n(C)c2=O)n1 | -13%
O=C1CC(C(=O)Nc2ccc(O)c(C(=O)O)c2)C(c2ccccc2)O1 (stereo not drawn) | ?

CN1CCN(NS(=O)(=O)c2ccc(Cl)s2)CC1
  HPGD inh = -18%
O=C(Nn1c(O)c(C=C2N=c3ccccc3=N2)sc1=S)c1cccc(Cl)c1
  HPGD inh = -15%
CC(C)(C)SCCNS(=O)(=O)c1ccc(F)cc1
  HPGD inh = -9%
CCCC(=O)Nc1ccc(C(=O)NCc2ccccc2Cl)cc1
  HPGD inh = -21%
COc1ccc(-c2onc3ccc(Br)cc23)cc1
  HPGD inh = -19%
COC(=O)c1nc(-c2ccccc2)oc1N(C)C
  HPGD inh = ?
CCOC(=O)Cc1csc(NC(=S)NC(=O)c2ccc(Cl)cc2)n1
  HPGD inh = -10%
CCN(c1ccccc1)S(=O)(=O)c1ccc(F)cc1
  HPGD inh = -7%
COc1cccc(C(=O)NCC(=O)N/N=C/c2cccc(OC(=O)c3ccc([N+](=O)[O-])cc3)c2)c1
  HPGD inh = 1%
Cc1ccc(Cc2nnc3n(-c4cccc(C)c4)nc(C(=O)c4ccccc4)n3c2=O)cc1
  HPGD inh = -9%
CCC(=O)Nc1nonc1-c1nc2ccccc2n1CCC(C)C
  HPGD inh = ?
C=CCNc1ncnc2c1ncn2C1OC(CO)C(O)C1O (stereo not drawn)
  HPGD inh = -11%
CN(C)S(=O)(=O)c1cccc(NC(=O)c2cc3c(=O)n4ccccc4nc3s2)c1
  HPGD inh = ?
CCN(CC)CCCCn1c(-c2ccccc2)nc2c(NCc3ccccc3)nc(C)nc21
  HPGD inh = ?
COc1ccccc1-c1nnc(SC2CCc3ccccc3NC2=O)s1 (stereo not drawn)
  HPGD inh = ?

Looked up above:
COc1ccc(-c2onc3ccc(Br)cc23)cc1 | HPGD inh = -19%
CCCC(=O)Nc1ccc(C(=O)NCc2ccccc2Cl)cc1 | HPGD inh = -21%
Cc1ccc(Cc2nnc3n(-c4cccc(C)c4)nc(C(=O)c4ccccc4)n3c2=O)cc1 | HPGD inh = -9%

(listing goes on)
Cc1cccnc1NC(=O)c1c(O)c2ccccc2n(C)c1=O
  HPGD inh = 1%
Cc1ccc2c(=O)c(C(=O)NCc3cccs3)c[nH]c2c1
  HPGD inh = -14%
COc1cc(OC)c(C2CC(=O)N3CN(c4ccc(C)cc4)CSC3=C2C#N)cc1OC (stereo not drawn)
  HPGD inh = 7.1µM*
c1ccc(-n2ncc3c2ncn2nc(CSc4nc5ccccc5s4)nc32)cc1
  HPGD inh = ?
CCCOc1c(Br)cc(C2C3=C(CCCC3=O)N(C)C3=C2C(=O)CCC3)cc1OC
  HPGD inh = ?
O=c1c(-c2cc(F)cc(F)c2)nc2cnc(Oc3ccccc3)nc2n1C1CC1
  HPGD inh = -13%
CCc1ccc(N(CC)C(=O)c2ccc3c(Cl)c4c(nc3c2)CCC4)cc1
  HPGD inh = ?
Cc1ccc(C2C3=C(CC(C)(C)CC3=O)Nc3[nH]c(=S)[nH]c(=O)c32)cc1 (stereo not drawn)
  HPGD inh = 18µM*
CCOC(=O)c1cnc(SCc2nc(N)nc(Nc3ccccc3OC)n2)nc1N
  HPGD inh = -9%
O=[N+]([O-])c1cc(/C=N/N2CCN(C3c4ccccc4-c4ccccc43)CC2)ccc1Cl
  HPGD inh = -10%
Cc1ccc(-n2c(C)cc(C3N=C(N)Nc4nc5ccccc5n43)c2C)c(C)c1 (stereo not drawn)
  HPGD inh = -6%
CCOC(=O)CSc1nc(NCc2ccco2)c2ccccc2n1
  HPGD inh = -10%
COc1ccc(NC2=NCC(Cc3ccc(Br)cc3)S2)cc1 (stereo not drawn)
  HPGD inh = -25%
Oc1ccc2ccccc2c1/C=N/n1cnnc1
  HPGD inh = -3%
COc1ccc(C2SCCN2S(=O)(=O)c2ccc(F)cc2)cc1OC (stereo not drawn)
  HPGD inh = 0%

O=C(NCCCO)/C(=C\c1cn(-c2ccccc2)nc1-c1cccnc1)NC(=O)c1ccccc1
  HPGD inh = 4%
CC/C(=C(/CC)c1ccc(O)cc1)c1ccc(O)cc1
  HPGD inh = -19%&-13%
CCC(=O)c1cc2c(C)cc(=O)oc2c(C)c1OC(=O)C(C)C
  HPGD inh = 19%
NC(=O)CSc1nnc(-c2ccc(O)cc2)n1Cc1ccco1
  HPGD inh = -7%
COc1ccc(OC)c(-n2c(C)nc3cc(C(=O)O)ccc32)c1
  HPGD inh = -18%
Cc1c(CCC(C)C)c(=O)n2c([nH]c3ccccc32)c1C#N
  HPGD inh = ?
CC(C)=CC(=O)Nc1nnc(-c2cccnc2)s1
  HPGD inh = -11%
COc1ccc(NC(=O)C=C(C)C)cc1Cl
  HPGD inh = 18µM*
COc1cc(OC)c(C2=NOC(C(=O)N3CCc4ccccc4C3)C2)cc1Cl (stereo not drawn)
  HPGD inh = 11µM*
COCCn1c(C)cc(C(=O)CSc2nc(C)cc(C)c2C#N)c1C
  HPGD inh = -11%
N#CC1=C(N)Oc2n[nH]c(-c3ccccc3)c2C1c1ccncc1 (stereo not drawn)
  HPGD inh = -23%
S=C(NCCc1ccccc1)NCCc1ccccc1
  HPGD inh = -2%
C=CCN1C(=O)S/C(=C/c2ccc(Sc3nc4ccccc4[nH]3)o2)C1=O
  HPGD inh = -16%
CCS(=O)(=O)c1nn2c(N)c(/C=C3/C=CC(=O)C(OC)=C3)c(=O)nc2s1
  HPGD inh = ?
COC(=O)CNC(=O)CSc1nnc(-c2ccc(OC)cc2)n1CC(C)C
  HPGD inh = -3%

Not a retest: 3 of the compounds above.
C=CCN1C(=O)S/C(=C/c2ccc(Sc3nc4ccccc4[nH]3)o2)C1=O
  HPGD inh = -16%
CCS(=O)(=O)c1nn2c(N)c(/C=C3/C=CC(=O)C(OC)=C3)c(=O)nc2s1
  HPGD inh = ?
COC(=O)CNC(=O)CSc1nnc(-c2ccc(OC)cc2)n1CC(C)C
  HPGD inh = -3%

The main list resumes; the 2 compounds before the break are reprinted first.
CCS(=O)(=O)c1nn2c(N)c(/C=C3/C=CC(=O)C(OC)=C3)c(=O)nc2s1
  HPGD inh = ?
COC(=O)CNC(=O)CSc1nnc(-c2ccc(OC)cc2)n1CC(C)C
  HPGD inh = -3%
CC(=O)N1CCN2C(=O)C1CCCC(=O)c1cc(C(C)C)ccc12 (stereo not drawn)
  HPGD inh = -5%
NS(=O)(=O)c1ccc(CCN2C(=O)/C(=C\c3ccc(Cl)cc3)SC2=S)cc1
  HPGD inh = -2%
CC1=CN2CC(O)CN=C2C=C1 (stereo not drawn)
  HPGD inh = ?
CC(C)(C)NC(=O)NC(=O)COC(=O)Cc1coc2ccc3ccccc3c12
  HPGD inh = -26%
Cc1ccc(C)c(Oc2cc(NC(=O)CCCn3nc(C)c([N+](=O)[O-])c3C)cc([N+](=O)[O-])c2)c1
  HPGD inh = -16%
O=Nc1ccc(NOC(=O)c2ccccc2Br)cc1
  HPGD inh = 28µM*
c1ccc(-n2ncc3c(N4CCN(c5ccccn5)CC4)nc(N4CCCCC4)nc32)cc1
  HPGD inh = -8%
CCn1ncc(C2=NOC(C(=O)NCCc3ccccc3)C2)c1C (stereo not drawn)
  HPGD inh = -7%
CCCn1c(-c2ccc(F)cc2)nc2c(N3CCN(C)CC3)nc(C)nc21
  HPGD inh = -25%

From PubChem
